# Source: PubChem BioAssay
# VACV mCherry inh = inhibitors of vaccinia virus infection (mCherry reporter signal). Vaccinia virus mCherry reporter infection, fluorescence; about a quarter of the inactives have no number. Potency, µM (titrated, usually from 36.5 µM), for inactives: at the highest dose activity change, negative = inhibition, hits mostly inhibitors. 310,000 compounds, 0.63% hits; active = well fitted inhibition curve with a large enough effect; inconclusive = small, poorly fitted or top-dose-only effect; inactive = no such curve, though single readings can be large or run the other way; tested in A549 cells; also: nearly all actives have a fitted effect of over 35% in size; inactives centre near -10
# Vaccinia Venus = inhibitors of vaccinia virus (Venus reporter) | Vaccinia virus Venus reporter expression, fluorescence | Potency, µM (top dose mostly 36.5 µM), for the others: at the highest dose activity change, negative = inhibition, hits mostly inhibitors | 330,000 compounds, 0.46% hits; active means well fitted inhibition curve with a large enough effect; inconclusive means small, poorly fitted or top-dose-only effect; inactive means no such curve, though single readings can be large or run the other way; tested in A549 cells; also: nearly all actives have a fitted effect of over 30% in size; inactives centre near -10
# The depositor's hits bear a star; i = inactive; ? = inconclusive; / = no result given; & = joins results of further samples; [ ] = another dose, or the depositor's remark. % is scaled to controls: 0 for no effect and ±100 for the full control effect; potency is read from the fitted curve at half-maximal effect.
# Order of results – VACV mCherry inh	Vaccinia Venus
COc1ccccc1N1CCN(C(=O)c2ccc(N3CCCCS3(=O)=O)cc2)CC1
 : ?	-9%
O=C1CCN(Cc2cccnc2)CCN1[C@H](CO)c1ccccc1
 : -10%	-10%&2%
COc1ccc(CCN=C(N)NS(=O)(=O)c2ccc(F)cc2)cc1
 : -3%	-16%
Brc1cc2c(cc1-c1nc3ccccc3s1)OCO2
 : -26%	-14%
CCOc1ccc(NC(=O)CN(C)C(=O)CCc2ccccc2Cl)cc1OCC
 : -17%	?
Cc1ccc(CN2CC(N3CC=CC3)CS2(=O)=O)cc1 (stereo not given)
 : -4%	-6%
Cc1ccc2oc(C(=O)N3CCN(CC(=O)NC(C)C)CC3)c(C)c2c1
 : -24%	-4%
CCC(=O)Nc1nnc(S(=O)(=O)N(CC)c2cc(C)cc(C)c2)s1
 : ?	-22%
CSCCC(NC(=O)c1ccc(Cl)cc1)C(=O)OCC(=O)c1ccc[nH]1 (stereo not given)
 : -18%	-4%
O=C(NC1CCN(S(=O)(=O)c2cccc(Cl)c2)CC1)C1CCCCC1
 : -19%	-3%
O=C(COC(=O)c1c(Cl)ccc(Cl)c1Cl)NC(=O)NCc1ccccc1
 : ?	?
Cc1ccc2c(c1)NC(=O)C(CC(=O)NC1CCCCC1C)O2 (stereo not given)
 : -5%	8%
O=C(CCn1c(=O)c2ccccc2n(CC(=O)Nc2ccc(F)cc2)c1=O)NCCc1ccccc1
 : 8%	13%
CC(C)c1nc2sc3c(=O)[nH]cnc3c2c2c1CCCC2
 : -1%	-1%
Cc1ccc2c(c1)N(CCCC(=O)NCCCN1CCCC1=O)C(=O)CO2
 : -18%	-7%
Cc1ccc(S(=O)(=O)N2[C@@H](c3cccc(Cl)c3)C(C(=O)O)=CC[C@H]2c2ccc(Cl)c(Cl)c2)cc1
 : -18%	?
CCN(CCCNC(=O)c1ccc(Sc2ccc(Cl)cc2)c(NC(C)=O)c1)c1ccccc1
 : -17%	-6%
Cc1nc2ccccc2n1CC(O)COCC1CC=CCC1 (stereo not given)
 : /	?
Cc1ccsc1C1C(C#N)=C(N)N(N(C)C)C2=C1C(=O)CCC2 (stereo not given)
 : -7%	-6%
Cc1ccc(N2CN=c3s/c(=C\c4cccnc4)c(=O)n3C2)cc1
 : -12%	-7%
CCOc1ccc(OCC(=O)OC(C)C(=O)Nc2ccc(Cl)cn2)cc1 (stereo not given)
 : i	-13%
COCCn1c(SCc2nc3sc(C(=O)OC)c(C)c3c(=O)[nH]2)nc2ccccc21
 : -8%	0%
C/C=C/n1ccnc1CC(O)(c1ccccc1)c1ccc(C)cc1 (stereo not given)
 : -7%	-12%
COC(=O)[C@@]1(C)[C@H]2C(=O)N(C)C(=O)[C@H]2[C@H]2CN(C)C(=NC3CCCCC3)N21
 : -17%	-6%
COc1cccc(N2CCN(C(=O)c3c(C)nn(-c4ccccc4)c3C)CC2)c1
 : 5%	-13%
CSc1ccc(/C=N/NC(=O)c2ccc(O)cc2)cc1
 : -22%	-14%
C[C@@H]1CCCCO[C@@H](CN(C)Cc2ccc3c(c2)OCO3)[C@@H](C)CN([C@H](C)CO)C(=O)c2cc(NS(=O)(=O)c3ccccc3)ccc2O1
 : -27%	?
O=C1COCCOCCOCCOCC(=O)NCCN1
 : i	-2%
Cc1[nH]c2ccccc2c1C(C[N+](=O)[O-])c1ccco1 (stereo not given)
 : -9%	-19%
CCn1c(=O)c(C(=O)NNC(=O)c2ccccc2Br)c(O)c2ccccc21
 : -30%	-23%
COc1ccc(/C=C2/SC(=S)N(CCCC(=O)Nc3ccccc3C(=O)O)C2=O)cc1
 : i	20%
CCc1ccc2c(c1)c(N=NC1=NC(=O)CS1)c(O)n2CC
 : -11%[1.46 µM]	-18%
CC1CCCCN1CC(=O)Nc1ccc(N2CCCCCC2)cc1 (stereo not given)
 : -12%	-17%
Cc1ccc(NC(=O)Cc2c(F)cccc2Cl)cc1S(=O)(=O)N1CCOCC1
 : i	6%
COc1ccc(-c2noc(N(C)CC(=O)Nc3cccc(C(F)(F)F)c3)n2)cc1
 : /	?
OC(CNCc1ccc(Cl)cc1)(c1ccccc1)c1ccc(F)cc1 (stereo not given)
 : ?	-3%
O=C(Nc1cccc(Cl)c1)NC1CCN(C2CCCCC2)C1 (stereo not given)
 : i	-13%
O=C(c1cccc(Cl)c1)N1CCN(C2CCCCCC2)CC1
 : /	-32%
COc1ccc(Nc2cc(C)c3cc(NC(=O)Cc4ccc(Cl)cc4)ccc3n2)cc1
 : -20%	?
COc1cccc2c3c(c(C)nc12)CC(C)O3 (stereo not given)
 : -20%	-8%
CCCCN(C(=S)Nc1cccc(C)c1C)c1c(N)n(CCC)c(=O)[nH]c1=O
 : i	-13%
CC1Oc2ccccc2C=C1/C=C1/SC(N2CCOCC2)=NC1=O (stereo not given)
 : -29%	-18%
COc1cc(OC)cc(C(=O)N2CCN(C3CCN(Cc4ccccc4)CC3)CC2)c1
 : i	-6%
CCOC(=O)C1=C(C)N(CCCC(=O)O)C(=O)NC1c1cccs1 (stereo not given)
 : 0%	-7%
Cc1cc(CSC(=N)N)c(CSC(=N)N)cc1C
 : -23%	-21%
CC(C)n1cnnc1SCC(=O)Nc1ccc(Br)cc1F
 : -14%	-21%
Cc1ccc(C)c(Cn2c(SCC(=O)N(C)Cc3ccccc3)nc3ccccc32)c1
 : -17%	-11%
O=C(NC1CCCCC1)C1CCCN1C(=O)Nc1ccccc1 (stereo not given)
 : i	0%
CCn1nnnc1SCC(=O)Nc1cc(OC)cc(OC)c1
 : i	-15%
O=c1[nH]c(=O)n(Cc2ccco2)c(O)c1C=NCCN1CCOCC1
 : -1%	-8%
Cc1cccc(C)c1OCC(=O)Nc1ccccc1C(=O)N1CCOCC1
 : -13%	-15%
COc1ccc(N2CCN(C(=O)/C=C/c3ccco3)CC2)cc1
 : -10%	-12%
COc1ccc(-n2c(SCC(=O)N3CCc4ccccc43)nnc2-c2c[nH]c3ccccc23)cc1
 : 7%	4%
O=C(O)C1Cc2ccccc2CN1C(=O)CSc1nnc2ccccn12 (stereo not given)
 : -3%	-4%
CCOC(=O)C1=NNC(C(=O)c2ccc(Cl)cc2)C1c1ccccc1 (stereo not given)
 : -17%	-10%
O=C(Cn1c(O)c(/C=C2\C=Nc3ccccc32)sc1=O)N1CCOCC1
 : i	-4%
Cc1noc(C)c1CCC(=O)N1CCOc2ccc(CN3CCN(c4ccccn4)CC3)cc2C1
 : ?	-24%
O=C(Nc1ccccc1C(F)(F)F)c1ccccc1Br
 : -1%	-2%
Cc1c(NC(=O)COC(=O)c2ccccc2O)c(=O)n(-c2ccccc2)n1C
 : i	-3%
N=C1CCCN1CC(=O)c1cccs1
 : 15%	-7%

# Further entries:
mol	VACV mCherry inh	Vaccinia Venus
COC(=O)c1ccccc1Nc1ccnc(Cl)n1	i[7.34 µM]	-9%[7.34 µM]
Cc1ccc(C(=O)NCc2ccco2)cc1S(=O)(=O)N1CCCC1	?	-12%
CC(C)c1cc(-c2cc(-c3ccccc3)on2)nc(NC2CCCC2)n1	-12%	-1%
CCN(CC)CCCNC(=O)CCCn1ncn2c(cc3occc32)c1=O	-11%	-9%
CN(CC(=O)Nc1cccc(C#N)c1)S(=O)(=O)c1cc2c(cc1Cl)NC(=O)CO2	-10%	-7%
O=C(/C=C/Nc1ccc(Nc2ccccc2)cc1)c1cccs1	?	-9%
COC(C[C@@H]1O[C@H]1C(=O)COCc1ccccc1)OC	i	-18%
COC(=O)C1=C(C)N(CC2CC2)C(=NCc2cccc(C(F)(F)F)c2)N[C@H]1c1ccccc1	i	-25%
Cc1ccc(C(=O)NC(C)c2ccc(F)cc2)cc1 (stereo not given)	i	-9%
CCc1cc2c(cc1-c1csc(C/C(N)=N/O)n1)C(C)(C)CCC2(C)C	?	?
O=C(CNS(=O)(=O)Cc1ccccc1)NCc1ccccc1	i	-14%
Fc1cnc(N/N=C/c2ccc(-c3ccc(Br)cc3)o2)nc1N1CCOCC1	i	-14%
Cc1ccc(CN2CC(C(=O)NCC(=O)Nc3c(C)cccc3C)CC2=O)cc1 (stereo not given)	i	-11%
O=C1NC[C@@H](CCCCN2C[C@H](Cc3ccccc3)N(CCC3CCCCC3)C(=O)C2=O)N(CCc2ccc(O)cc2)C1=O	i	-6%
CSc1ccc(CCNC(=O)CN2C(=O)COc3ccc(S(=O)(=O)N4CCCC4)cc32)cc1	-8%	-15%
O=C1COc2cc(S(=O)(=O)CCC(=O)NC3CCCCC3)c(Cl)cc2N1	2%	5%
Cc1ccc(Cn2cc(SCC(=O)Nc3nccs3)c3ccccc32)cc1	?	-17%
O=C(COc1coc(CN2CCc3ccccc32)cc1=O)Nc1ccccc1	-22%	-20%
CCC(CC)C(=O)c1c[nH]c(C(=O)NCCc2ccccn2)c1	i	-11%
O=C(Nc1ccc2c(c1)OCO2)c1cccn(Cc2cccc(F)c2)c1=O	-20%	-13%
Cc1nc(Oc2ccccc2)c2oc3ccccc3c2n1	?	?
CCc1c(C)nc2ncnn2c1Nc1ccc(C)c(C)c1	/	-17%
CCN(c1ccccc1)S(=O)(=O)c1cc(C(=O)NCC(c2ccco2)N2CCCCC2)ccc1C (stereo not given)	?	-27%
Cc1cc(SCC(=O)NC2CC2)nc2ccccc12	-16%	-13%
O=C(Nc1ccc(Br)cc1)c1csc(-c2ccncc2)n1	-19%	6%
CN1C(=O)c2cccc(NC(=O)Cc3ccccc3)c2C1=O	-12%	-10%
O=C(Nc1ccc(Cl)cc1Cl)c1ccc2c(=O)n3c(nc2c1)CCC3	-15%	-12%
CCCNC(=O)NNC(=O)c1cc(-c2ccc3c(c2)OCO3)nc2ccccc12	-21%	-18%
COCCCNC(=O)c1ccc(NC(=O)N2CCCCc3ccccc32)cc1	14%	2%
COc1ccccc1CNC(=O)C1Cc2cc(S(=O)(=O)N3CCCC3)ccc2N1C(C)=O (stereo not given)	-15%	-29%
Cc1csc2ncc(C(=O)Nc3ccccc3Cl)c(=O)n12	?	-14%
COc1ccc(CNC(=O)C2CCN(S(=O)(=O)c3ccc4c(ccn4C)c3)CC2)cc1	-7%	-11%
CCOC(=O)/C(=N\Nc1ccc(OC)cc1)c1csc(Nc2ccccc2)n1	-20%	-30%
O=C(O)c1[nH]c2ccccc2c1CC(=O)N1CCN(c2ccccc2)CC1	-6%	-1%
O=c1cc(N2CCC3(CC2)OCCO3)[nH]c(=O)n1C1CCCCC1	/	10%
O=C(CCC(=O)N1CCN(S(=O)(=O)c2ccc(Cl)cc2)CC1)Nc1ccc2ccccc2c1	?	?
CCn1cc(S(=O)(=O)N2CCCC2)cn1	-13%	3%
CCOCCCNCC(=O)Nc1ccc(S(=O)(=O)NC(C)CC)cc1 (stereo not given)	i	4%
CC(C)OCCCn1c(SCc2ccccc2Cl)nc2c(sc3ccccc32)c1=O	-11%	7%
Cc1nnc(NC(=O)c2sc3nc(-c4cccs4)cc(C(F)(F)F)c3c2N)s1	-29%	95%[activator]
COC(=O)c1ccc(NC(=O)COc2ccc([N+](=O)[O-])cc2)cc1	-13%	-2%
CSc1nnc([C@H](Cc2c[nH]c3ccccc23)NC(=O)OC(C)(C)C)o1	-18%	-3%
CN(CC(=O)Nc1ccc(F)c(F)c1F)C(=O)C1CC(=O)N(c2ccc3c(c2)OCCO3)C1 (stereo not given)	-22%	-10%
COc1cccc(NC(=O)C2CCCN(S(C)(=O)=O)C2)c1 (stereo not given)	-13%	1%
Cc1nc(NC(=O)CSc2nccn2C)sc1C(=O)N(C)C	-3%	-11%
COc1cc(C(=O)Oc2ccccc2N)cc(OC)c1OC	/	-14%
O=C1N(Cc2ccccc2)CC2(Br)COCOC12O (stereo not given)	-17%	3%
Cc1c(NS(=O)(=O)c2ccc(N3CCN(C)CC3)c([N+](=O)[O-])c2)c(=O)n(-c2ccccc2)n1C	5%	6%
CC1CC(C)CN(C(=O)CSc2nnc(-c3ccc(Cl)s3)o2)C1 (stereo not given)	-11%	-12%
O=[N+]([O-])c1ccc2nc(SCc3cn4cc(Cl)ccc4n3)[nH]c2c1	i	-8%
Cc1ccc(CN2CCC(C(=O)Nc3ccc(Oc4cccnc4)cc3)CC2)cc1	-17%	-23%
O=C(Nc1ccc(N2CCOCC2)cc1)c1csc([C@@H]2C[C@H](O)[C@@H](CO)O2)n1	15%	-6%
Cc1ccc(NC(=O)CSc2ncc3ccccn23)cc1C	-17%	-12%
Cc1cc(S(=O)(=O)N2CCOCC2)ccc1OCC(=O)N1CCCC1	12%	-4%
